Bead autofluor: counter-screen for toxin protease inhibitors: compound fluorescence | actives 3.1% (n = 360,000) | AID 624483 | fluorescence intensity (no concentration beside the values) | compound autofluorescence counterscreen, microsphere flow cytometry; active compounds read high;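 active means at least 3 SD above the mean of all compounds, about 16000 in these data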;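 further: 100 nL of 1 mM stock went into each well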
RN4220 kill: kills Staphylococcus aureus RN4220; AID 1259311; actives 0.33% (n = 330,000); inhibition, % (test concentration not listed); S. aureus RN4220 growth, OD600, 16 h;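 active means z-score of -3 or lower and OD600 up to 0.18 on both plates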;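 further: plate controls were untreated cells for no effect and reference antibiotic for full effect; stock transfer was 100 nL into about 80 µL; one replicate is shown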
PrP 5UTR inh: suppresses PrP 5' UTR mRNA reporter expression; actives 0.35% (n = 340,000); inhibition, % (concentration not given with the values); cell-based PrP 5' UTR mRNA reporter, plate reader;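 active means every replicate at 50% or more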;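 further: 0 = median of the neutral control wells; tested in H4 reporter cells; numbers are from one replicate; inactives centre near -14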
Sa ugtP lethal: compounds lethal to S. aureus RN4220 ugtP deletion mutant; OD600 growth, 16 h; some inactives read as strong as hits; growth inhibition, % (test concentration not listed); actives 0.54% (n = 330,000);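 active means z-score under -3 and OD600 up to 0.15 on both plates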;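 further: plate controls were untreated wells for no effect and antibiotic for full effect; wells of about 80 µL received 100 nL stock; the first replicate is given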
BJeLR lethal: kills HRASV12-expressing BJeLR cells. BJeLR (HRASV12) viability, CellTiter-Glo ATP luminescence, 48 h; reference of the scale not given here. actives 0.17% (n = 300,000). inhibition, % (no concentration beside the values);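 active means replicate mean above 50%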;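 further: 50 nL library stock added to about 25 µL; numbers are from one replicate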
Mtb hypoxia rep: inhibitors of hypoxia-regulated fluorescent reporter in Mycobacterium tuberculosis; M. tuberculosis hypoxia-regulated fluorescent reporter, fluorescence; fluorescence inhibition, % (no concentration beside the values); actives 0.1% (n = 300,000);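 active means 35 to 45% if threefold the growth effect, above 45% if 1.5-fold the growth effect; inactive means the rest, general growth blockers included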;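 further: wells of about 50 µL received 100 nL stock; 0% = vehicle wells and 100% = reference inhibitor wells; whole bacteria with a GFP reporter of the hypoxia response; strong numbers were not always called active; many hits fall short of the cut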
Mtb hypoxia rep growth: further read-out of Mtb hypoxia rep, marked with its call; growth inhibition, %; measured here: M. tuberculosis growth (absorbance);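 0% = vehicle and 100% = reference antibiotic; read after six days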
* marks the source's active call; other numbers are inactive results; . = no result given.

Start of the data: the first 2 compounds, to show the layout:
Values run as follows: BJeLR lethal	Bead autofluor	RN4220 kill	PrP 5UTR inh	Mtb hypoxia rep growth	Mtb hypoxia rep	Sa ugtP lethal
- Cc1ccc(/C=C/C(=O)O)cc1S(=O)(=O)Nc1ccccc1C(=O)O
  -1.8	4577	4.8	-29.3	-1.0	3.7	8.8
- N#Cc1nc(-c2ccc(OCc3ccc(Cl)cc3)cc2)oc1NCc1cccnc1
  -6.2	2803	1.2	-13.1	8.3	6.7	-17.4

The whole of this part, from the start:
Values run as follows: BJeLR lethal	Bead autofluor	RN4220 kill	PrP 5UTR inh	Mtb hypoxia rep growth	Mtb hypoxia rep	Sa ugtP lethal
- Cc1ccc(/C=C/C(=O)O)cc1S(=O)(=O)Nc1ccccc1C(=O)O
  -1.8	4577	4.8	-29.3	-1.0	3.7	8.8
- N#Cc1nc(-c2ccc(OCc3ccc(Cl)cc3)cc2)oc1NCc1cccnc1
  -6.2	2803	1.2	-13.1	8.3	6.7	-17.4
- Cc1nc(-c2ccccn2)nc(SCC(=O)c2ccccc2)c1Cl
  -3.5	4580	1.6	-28.3	0.5	-1.0	9.2
- CNC(=O)C1CCN(S(=O)(=O)c2c(C)noc2/C=C/c2cccc(OC)c2)CC1
  2.8	4442	1.0	13.6	.	.	1.6
- C#CCNC(=O)C1=C[C@H](c2coc3ccccc3c2=O)C[C@H](OCCCCO)O1
  -8.4	3468	.	-10.8	.	.	.
- CCOc1ccc(CNC(=O)c2ccccc2NC(=O)C2=CSCCO2)cc1
  -13.6	5517	5.3	-0.9	6.6	3.0	-1.4
- OC12CCCCC1C(c1ccccc1)NCC2 (configuration not stated)
  -12.1	7551	0.1	-22.0	-0.1	5.0	7.5
- Cc1ccc(CC2C(=O)N(c3ccc(F)cc3)C(=O)C2C)cc1 (configuration not stated)
  -2.7	3868	0.8	-11.4	1.8	16.7	1.9
- CC(C)OC(=O)C(C(=O)C(F)(F)F)c1cc(NS(=O)(=O)c2ccc3ccccc3c2)c2ccccc2c1O (configuration not stated)
  -5.0	7144	19.9	-29.6	8.8	1.0	-2.1
- O=C(O)C=CC(=O)Nc1ccc(OC(F)(F)Cl)cc1
  .	.	-0.8	.	4.9	6.1	-7.1
- CCN(C(=O)COC(=O)/C(C#N)=C/c1ccc(OC)cc1)C1CCS(=O)(=O)C1 (configuration not stated)
  9.2	5532	1.2	-9.0	3.9	5.8	14.0
- COC(=O)c1nnn(-c2nonc2N)c1CSc1nc2ccccc2o1
  1.0	9087	4.6	-6.1	-1.1	1.4	-6.0
- CCOC(=O)COc1c(Br)cc(C2NC(=O)NC(C)=C2C(C)=O)cc1OC (configuration not stated)
  -4.4	15350	2.6	0.3	-1.4	0.6	6.3
- Cc1cccc(OCC(=O)N(C)CCc2ccccn2)c1
  -5.1	2758	-3.0	-22.8	.	.	10.4
- COc1ccccc1C(=O)NCCC(=O)NCc1ccncc1
  .	3952	6.3	-8.1	2.9	7.5	4.5
- CCC(=O)NC(Nc1ncc(C)s1)(C(=O)OC)C(F)(F)F (configuration not stated)
  1.0	3501	3.6	2.4	4.4	8.0	11.9
- NCCCn1c(C(=O)c2cc(Cl)c(N)c(Cl)c2)c2ccc([N+](=O)[O-])cc2[n+]1[O-]
  2.1	2704	62.8	9.5	24.3	25.7	64.9
- O=C(CSc1ccccc1)NC1CCCCCC1
  -5.5	6131	0.4	-25.4	9.8	7.0	7.5
- CCOc1ccc2nc(NC(=O)c3ccc(OCC4CCCO4)cc3)sc2c1 (configuration not stated)
  8.4	3027	4.3	-103.4	9.2	-1.3	-13.1
- CCOC(=O)N1CCN(c2c(-c3ccccc3)c3cc(Cl)ccc3[nH]c2=O)CC1
  -17.7	7826	-0.2	-40.9	-1.0	2.4	-14.1
- COc1ccc(CNC(=O)c2csc(Cc3ccc(Cl)cc3)n2)cc1
  -1.9	3231	-17.8	-24.0	.	.	9.1
- CN(c1cccc(NC(=O)c2ccc(Cl)c(S(=O)(=O)Nc3ccccc3)c2)c1)S(C)(=O)=O
  -0.1	8703	2.3	-9.5	4.0	9.3	41.3
- COc1ccc(CNC(N)=O)cc1OC
  2.6	2361	3.3	-15.8	.	.	-1.5
- Oc1ccc2ccccc2c1C=NNc1ccccc1
  .	.	15.0	.	0.1	-0.8	24.3
- Cc1cc(=O)oc2c3c(cc(OCC(=O)NCCN4CCOCC4)c12)OC(C)(C)CC3
  -8.3	5605	3.0	-42.9	.	.	5.3
- CC1=C(C(=O)NCc2ccc(Cl)cc2)C2(CCC(C)CC2)OC1=O (configuration not stated)
  -0.2	4750	1.1	-8.9	0.2	4.0	6.2
- Cn1cc(CNCc2ccccc2OCC(O)CN2CCc3ccccc3C2)cn1 (configuration not stated)
  7.7	4338	5.9	-27.5	-1.2	-8.3	6.9
- COC(=O)Nc1nn(-c2ccc(OC)cc2)c(=O)c(C#N)c1C
  18.5	4156	4.8	-8.7	10.3	2.1	12.5
- CCCCN(CCCC)S(=O)(=O)c1ccc(NC(=O)Cc2cccs2)cc1
  4.9	23090*	-0.9	-15.0	7.7	9.9	-1.6
- Cc1ccc(S(=O)(=O)CCSc2nc(C)cc(C)c2C#N)cc1
  10.9	6462	7.7	5.2	3.8	3.3	6.7
- O=C(COc1ccc([N+](=O)[O-])cc1Cl)N1CCOCC1
  -3.3	3441	-0.3	-14.7	-3.8	8.0	12.9
- COc1cc(OC)c(OC)cc1/C=N/Nc1nc2ccccc2[nH]1
  2.3	6381	.	-20.2	.	.	.
- COc1ccc([N+](=O)[O-])cc1NC(=O)Cc1ccccc1Cl
  -4.4	2425	2.9	-28.9	1.9	7.3	0.5
- CC1(OC(=O)c2cccs2)C(=O)C=C2C=C3CCCN3C=C2C1=O (configuration not stated)
  -15.4	3726	.	-29.4	.	.	.
- CC1CCCCC1NC(=O)Cn1cnc2ccccc2c1=O (configuration not stated)
  1.8	3607	-11.5	-22.4	0.5	17.1	-0.7
- COc1cc2ccccc2cc1C(=O)Nc1ccccc1C
  -6.7	3896	-0.1	-39.5	12.8	7.0	1.1
- Cn1cc([N+](=O)[O-])c(C(=O)Nc2sc3c(c2C#N)CCC3)n1
  -13.4	5924	5.8	-31.4	1.4	-0.8	-0.6
- O=C(Nc1ccc(Cl)cc1)N1CCSc2ccccc21
  -7.2	23243*	9.2	-17.6	8.6	6.1	-5.6
- N#Cc1ccccc1NC(=O)CN1CCN(Cc2ccccc2)CC1
  -2.4	3660	2.1	6.8	5.1	13.1	-1.4
- COc1ccc(CCN(C(=O)COc2ccccc2)c2nc(-c3ccccc3)cs2)cc1OC
  -8.2	21315*	-0.6	-12.8	5.6	4.9	-3.1
- N=C1C(c2nc3ccccc3s2)=C(O)CN1c1ccccc1
  -0.5	1973	3.9	-28.6	-2.2	-1.2	-3.0
- O=C(N/N=C/c1ccc(F)cc1)c1cc[n+]([O-])cc1
  0.7	3712	.	-6.5	.	.	.
- CCOC(=O)C1=C(C)NC(=O)NC1c1ccc(F)cc1 (configuration not stated)
  2.6	2116	1.5	-35.0	5.0	9.7	0.8
- Cc1c[n+]([O-])n(-c2ccc(C(=O)O)cc2)n1
  -2.6	2207	-0.2	-15.9	.	.	-6.3
- COC(=O)c1nc(-c2ccccc2)oc1N1CCOCC1
  18.1	4129	3.2	0.9	15.5	4.8	-4.5
- CCOC(=O)c1c(S(=O)(=O)Nc2ccc(CN3CCC(C)CC3)cc2)c(C)n(C)c1C
  -3.1	6797	2.8	-7.5	-0.8	16.9	10.4
- Cc1cc(C(=O)NN=Cc2ccc(O)c(O)c2O)c(C)n1-c1ccccc1
  .	.	9.1	.	3.7	9.1	14.2
- NNC(=O)c1sccc1OCc1ccc(Cl)cc1Cl
  5.2	2695	9.9	-22.6	5.9	4.0	-7.1
- CC(=O)c1ccc(NC(=O)c2ccc(S(=O)(=O)N3CCCC3)cc2)cc1
  -12.5	5396	3.4	-22.9	-1.2	0.1	-0.8
- Cc1nn(C)cc1CNC(=O)c1cccc(F)c1
  6.9	2043	5.3	-15.1	10.9	2.0	4.5
- Cn1c(COc2ccc(Br)cc2)nnc1SC1CCc2ccccc2C1=O (configuration not stated)
  5.8	2475	-3.9	-22.9	16.6	-9.9	-8.3
- CCC(C)(C)n1nnnc1C(c1cc2cc(C)ccc2[nH]c1=O)N1CCCC1 (configuration not stated)
  -17.8	21937*	-4.7	-15.1	-6.5	-16.9	-17.4
- COc1cccc(CSc2nnc(-c3ccco3)n2C)c1
  5.6	8355	3.4	-26.5	0.5	13.2	4.8
- Cc1cc(N2CCN(C)CC2)n2nc(-c3ccc(Cl)cc3)nc2n1
  5.7	3024	2.7	-14.6	5.1	10.5	3.6
- N#C/C(C(=O)N1CCCCC1)=C1/N=C(NC(=O)c2ccc(F)cc2)c2ccccc21
  -3.6	5283	4.8	-28.6	3.4	0.3	3.1
- COc1ccc(N2CCN(CCNC(=O)c3nnc(Cc4c(F)cccc4Cl)o3)CC2)cc1
  0.2	23982*	3.9	-6.2	13.4	15.2	-6.7
- CCOc1ccc(N=c2oc3cc(O)ccc3cc2C(=O)NCC2CCCO2)cc1 (configuration not stated)
  -13.0	11107	8.8	-18.6	2.2	7.1	-15.4
- NC(=S)Nc1cccc2cnccc12
  -0.9	3131	3.2	-14.6	2.3	-0.4	-9.7
- Cc1ccccc1-n1ncc2c1CC(C)(C)CC2NC(=O)CSc1ccncc1 (configuration not stated)
  -0.9	6012	-1.6	-5.1	14.7	0.7	-2.1
- Nc1nc(SCc2ccc(Br)cc2)[nH]c(=O)c1-c1ccccc1
  1.0	3440	3.2	2.0	2.2	-0.7	-1.2

Other structures:
Values run as follows: BJeLR lethal	Bead autofluor	RN4220 kill	PrP 5UTR inh	Mtb hypoxia rep growth	Mtb hypoxia rep	Sa ugtP lethal
- Cc1ccc(-n2c(N)c(C(=O)N3CCN(C)CC3)sc2=S)cc1
  -11.2	21266*	-2.4	-13.6	-2.9	0.3	-3.5
- CCc1ccc(Nc2nnc(SCC(=O)NCCN3C(=O)CSC3=O)s2)cc1
  5.9	2725	1.4	-13.7	5.5	-9.1	5.5
- Cc1nn(Cc2ccc(F)cc2)c(C)c1NC(=O)c1noc2c1CCc1ccccc1-2
  -8.8	5147	2.3	-6.8	-4.0	-4.4	3.2
- Cc1cc(=O)[nH]c(N/N=C/c2ccc(C)o2)n1
  -2.7	2340	.	-11.3	.	.	.
- COc1ccc(N2CCN(C(=O)COC(=O)c3ccc(-n4nc(C)cc4C)cc3)CC2)cc1
  .	6554	7.7	-13.7	1.1	3.6	11.8
- Cc1ccccc1Nc1nc(N)nc(COC(=O)c2ccc([N+](=O)[O-])o2)n1
  .	3994	12.8	-26.1	.	.	-3.2
- COCCn1nnnc1CN(CCc1ccccc1)Cc1cc2cc(OC)ccc2[nH]c1=O
  -1.5	14287	7.7	-13.2	2.9	9.1	8.3
- COc1ccc(/C=C2\C(=O)ON=C2c2cccc([N+](=O)[O-])c2)cc1
  -4.6	.	-1.2	.	-2.0	-0.9	5.0
- O=C(Nc1ccccc1)c1cc2ccccc2[nH]1
  3.3	7332	2.4	-24.1	5.6	1.7	9.7
- O=C(NCC1CC1)C1(C(F)(F)F)CC(CCc2ccccc2)CCCO1 (configuration not stated)
  4.6	3875	2.5	-12.1	11.6	16.5	2.7
